From PubChem BioAssay
Vaccinia mCherry = inhibitors of vaccinia virus infection (mCherry reporter signal). Vaccinia virus mCherry reporter infection, fluorescence; about a quarter of the inactives have no number. Potency, µM (highest dose often 36.5 µM), without a hit: top-dose activity change, negative = inhibition, actives largely listed as inhibitors. 310,000 compounds, 0.63% hits. AID 720579; active = well fitted inhibition curve with a large enough effect; inconclusive = small, poorly fitted or top-dose-only effect; inactive = no such curve, though single readings can be large or run the other way; tested in A549 cells; further: nearly all actives have a fitted effect of over 35% in size; inactives centre near -10
Vaccinia Venus = vaccinia inhibition (Venus reporter) | Vaccinia virus Venus reporter expression, fluorescence | Potency, µM (series often up to 36.5 µM), for inactives: at the top dose activity change, negative = inhibition, actives largely listed as inhibitors | 330,000 compounds, 0.46% hits; active means well fitted inhibition curve with a large enough effect; inconclusive means small, poorly fitted or top-dose-only effect; inactive means no such curve, though single readings can be large or run the other way; tested in A549 cells; further: nearly all actives have a fitted effect of over 30% in size; inactives centre near -10
Active calls of the source: *; [ ] = another dose, or the depositor's remark. On the % scale 0 is the no-effect control and ±100 the full control effect; potency means the concentration at half of the fitted maximal effect.

For Cc1noc(C)c1CSCC(=O)N(C)CC(=O)Nc1ccccc1Cl the results were Vaccinia mCherry inactive and Vaccinia Venus -7.8%.
Screening COc1ccc(-n2c(=O)c3c(c4cc(OC)ccc4n3C)n(CC(=O)N3CCCC3)c2=O)cc1 returned Vaccinia mCherry -11.5% and Vaccinia Venus -6.2%.
`CN(CC(=O)NCc1cccnc1)S(=O)(=O)c1ccc2c(c1)c(=O)n(C)c(=O)n2C` gave Vaccinia mCherry inactive and Vaccinia Venus -13.6%.
For Cc1cc2cc(CCNC(=O)c3ccc(Br)o3)c(=O)[nH]c2cc1C the results were Vaccinia Venus inconclusive.
`O=C1[C@H]2[C@@H](c3ccc(F)cc3)N3C(=O)N(c4ccccc4)C(=O)[C@@]3(Cc3ccc(Cl)cc3)[C@H]2C(=O)N1C1CCCCC1` gave Vaccinia mCherry -7.3% and Vaccinia Venus -19.3%.
Screening CC1([N+](=O)[O-])COP(=O)(Nc2cccc(Cl)c2)OC1 (centres undefined) returned Vaccinia mCherry inactive and Vaccinia Venus -7.7%.
For O=C(CSc1ncn(-c2ccccc2)n1)Nc1nc2ccccc2s1 the results were Vaccinia mCherry inconclusive and Vaccinia Venus -16.7%.
`COc1ccccc1CC(NC(C)=O)C(=O)NC1CCN(S(=O)(=O)c2ccc(NC(C)=O)cc2)CC1` (centres undefined) gave Vaccinia mCherry -5.1% and Vaccinia Venus -1.5%.
For COc1ccc(C(=O)CSc2nnc(CN3CCCCC3)n2-c2ccc(Cl)cc2)cc1OC the results were Vaccinia mCherry -18.6% and Vaccinia Venus -15.6%.
For Cc1ccc(COc2cccc3c2CCN(Cc2ccc(F)cc2)C3=O)cc1 the results were Vaccinia mCherry -23.8% and Vaccinia Venus -15.4%.
Screening Cc1ccc(C(=O)NC(=S)Nc2ccc(-c3ccc(CO)o3)cc2)cc1 returned Vaccinia mCherry -21.4% and Vaccinia Venus -18.8%.
For COc1ccc(CNC(=O)CSc2nnc(C)c(=O)[nH]2)cc1 the results were Vaccinia mCherry -6.3% and Vaccinia Venus -4.1%.
Screening CC(=O)NCC(N)C(=O)c1ccc(Cl)c(Cl)c1 (centres undefined) returned Vaccinia mCherry -11.6% and Vaccinia Venus -17.3%.
COc1ccccc1CNC(=O)c1ccc(OC(C)C)cc1 was read as Vaccinia mCherry inactive and Vaccinia Venus -21.0%.
`Cc1ccc(Cl)cc1N1CCN(C(=S)NCCc2ccccc2)CC1` gave Vaccinia mCherry -9.0% and Vaccinia Venus -15.5%.
Screening CC1=C(C)CC(C(=O)Nc2ccc(C(=O)N3CCOCC3)cc2)C(C(=O)O)C1 (centres undefined) returned Vaccinia mCherry inactive and Vaccinia Venus -0.1%.
COc1cccc(N2CCN(c3ncnc4onc(-c5ccc(Cl)cc5)c34)CC2)c1 was read as Vaccinia mCherry -10.3% and Vaccinia Venus 0.0%.
`O=C(COc1cccnc1[N+](=O)[O-])NCCc1ccc(Cl)cc1Cl` gave Vaccinia mCherry -9.7% and Vaccinia Venus -18.2%.
CN1CC(COCc2ccccc2)Oc2ccccc2S1(=O)=O (centres undefined) was read as Vaccinia mCherry -27.2% and Vaccinia Venus -1.7%.
`CCN(CC)C(=O)C1=C(C)N(CCC2=CCCCC2)C(=O)C(CC(=O)NCCCCc2ccccc2)C1` (centres undefined) gave Vaccinia mCherry -3.0% and Vaccinia Venus inconclusive.
Screening c1ccc(-n2nnnc2-n2ccnc2)cc1 returned Vaccinia Venus -10.3%.
Screening CCOc1ccc(NC(=O)C2CCCN(S(=O)(=O)c3c(C)noc3C)C2)cc1 (centres undefined) returned Vaccinia mCherry -10.4% and Vaccinia Venus -2.2%.
O=S(=O)(c1cccc2ccccc12)N1CCCCC1 was read as Vaccinia mCherry -19.4% and Vaccinia Venus -7.6%.
Screening O=C1NC[C@H](CCCCN2C[C@H](Cc3ccc(O)cc3)N(CC3CCCCC3)C(=O)C2=O)N(CC2CCCCC2)C1=O returned Vaccinia mCherry 4.8% and Vaccinia Venus 5.3%.
`CC(=O)NCC(=O)OCC(=O)c1ccc(C)cc1` gave Vaccinia mCherry -8.1% and Vaccinia Venus -16.7%.
COc1ccc2c(c1)c1c(c(=O)n(-c3ccc(OC)c(OC)c3)c(=O)n1Cc1ccccc1C)n2C was read as Vaccinia mCherry -18.5% and Vaccinia Venus -6.7%.
Screening CCN1CCN(CC(=O)Nc2cc(C)on2)CC1 returned Vaccinia mCherry -15.1% and Vaccinia Venus -13.7%.
Screening Cc1noc(C)c1/C=N/Nc1ccccn1 returned Vaccinia mCherry -17.6% and Vaccinia Venus -27.2%.
Screening O=C(O)c1ccc(N/N=C/c2ccc(-c3cccc(Cl)c3)o2)cc1 returned Vaccinia mCherry inconclusive and Vaccinia Venus -16.1%.
COc1cc(OC)c(OC)cc1CNC(=O)c1cc(=O)[nH]c2ccccc12 was read as Vaccinia mCherry -11.6% and Vaccinia Venus -0.7%.

Pulled by compound from the entries so far (two):
O=S(=O)(c1cccc2ccccc12)N1CCCCC1 was read as Vaccinia mCherry -19.4% and Vaccinia Venus -7.6%.
COc1cc(OC)c(OC)cc1CNC(=O)c1cc(=O)[nH]c2ccccc12 was read as Vaccinia mCherry -11.6% and Vaccinia Venus -0.7%.

Next section:
For COC(=O)[C@H](Cc1c[nH]c2ccccc12)NC(=O)Nc1ccccc1OC the results were Vaccinia mCherry -8.7% and Vaccinia Venus -3.2%.
COc1ccc(S(=O)(=O)NCC(=O)N(CC(=O)NCC2CCCO2)c2c(C)cccc2C)cc1 (centres undefined) was read as Vaccinia Venus inconclusive.
For O=C(Nc1ccccc1OCc1cc(=O)n2ccccc2n1)c1cccc(Br)c1 the results were Vaccinia mCherry -19.6% and Vaccinia Venus -23.2%.
`COc1ccc(Cl)cc1NC(=O)CSc1nc2ccccc2nc1N1CCCCC1` gave Vaccinia mCherry -6.2% and Vaccinia Venus -5.8%.
Screening COc1ccc(C2=NN(c3ccccc3)C(=O)/C2=C\c2ccc(O)c(OC)c2)cc1 returned Vaccinia mCherry inconclusive and Vaccinia Venus -9.0%.
Cc1ccc(S(=O)(=O)N(CC(=O)Nc2ccc(C(C)C)cc2)Cc2ccccc2)cc1 was read as Vaccinia mCherry -8.9% and Vaccinia Venus -2.6%.
CCN(CC)S(=O)(=O)c1ccc(N2CCCC2)c(NC(=O)CSCc2c(C)noc2C)c1 was read as Vaccinia mCherry inconclusive and Vaccinia Venus -13.1%.
Screening O=C(O)c1cccc(NC(=O)c2ccc3c(c2)C(=O)N(c2ccccc2)C3=O)c1 returned Vaccinia mCherry -12.4% and Vaccinia Venus -8.0%.
Screening Cc1nn(C)c(C)c1Sc1ccccc1N returned Vaccinia mCherry -0.2% and Vaccinia Venus -8.1%.
`CN(C)CCn1c(=O)n(C2CCCCC2)c(=O)c2c3c(sc21)CCCCC3` gave Vaccinia mCherry inactive and Vaccinia Venus -18.9%.
For NS(=O)(=O)c1ccc(CCNC(=O)C2CCN(S(=O)(=O)c3ccc(Br)s3)CC2)cc1 the results were Vaccinia mCherry inactive and Vaccinia Venus -19.9%.
Screening COc1ccc(/C=C2\SC(=S)N(CCC(=O)NC3=NCCS3)C2=O)cc1OC returned Vaccinia mCherry -11.1% and Vaccinia Venus -4.8%.
`S=C(NCCN1CCOCC1)Nc1cccc(Cl)c1` gave Vaccinia mCherry -14.7% and Vaccinia Venus -6.2%.
Screening CCOc1cc(CNC(=O)CN2C(=O)c3ccccc3S2(=O)=O)ccc1OC returned Vaccinia mCherry -2.1% and Vaccinia Venus -14.4%.
For CC(=O)c1ccc(N2CCN(C(C)C(=O)NC3CCCc4ccccc43)CC2)cc1 (centres undefined) the results were Vaccinia mCherry inconclusive and Vaccinia Venus -13.1%.
`COc1cccc2cc(C(C)N(CCCN3CCOCC3)C(=O)Nc3ccc(Cl)cc3)oc12` (centres undefined) gave Vaccinia mCherry -19.6% and Vaccinia Venus -15.6%.
Screening c1coc(CN2CCN(C(c3cccs3)c3nnnn3C3CCCC3)CC2)c1 (centres undefined) returned Vaccinia mCherry -14.3% and Vaccinia Venus -8.3%.
`COc1ccccc1NC(=O)CCS(=O)(=O)c1ccc2c(c1)oc(=O)n2C` gave Vaccinia mCherry -20.4% and Vaccinia Venus -13.3%.
Screening CCNC(=O)C1(C)CCCN(C(=O)C2(c3ccc(Cl)cc3)CCCC2)C1 (centres undefined) returned Vaccinia mCherry 11.4% and Vaccinia Venus 2.5%.
Screening O=C(CN(Cc1ccco1)C(=O)CNS(=O)(=O)c1ccccc1)NC1CCCCC1 returned Vaccinia mCherry -2.5% and Vaccinia Venus 0.0%.
Screening Cc1ccc(-c2nc3c4ccccc4[nH]c(=O)n3n2)cc1 returned Vaccinia mCherry -4.0% and Vaccinia Venus -5.8%.
For O=C(Nc1c(-c2cccs2)nc2ccccn12)c1ccccc1F the results were Vaccinia mCherry -10.0% and Vaccinia Venus 8.9%.
O=C(Cc1nc2ccccc2[nH]c1=O)c1ccccc1 was read as Vaccinia mCherry -4.6% and Vaccinia Venus 4.6%.
For CC(Oc1ccccc1)C(=O)N1CCN(Cc2cc(=O)n3nc(-c4ccccc4Cl)sc3n2)CC1 (centres undefined) the results were Vaccinia mCherry -11.2% and Vaccinia Venus -9.9%.
Screening CCOC(=O)c1c(NC(=O)c2cccnc2Cl)sc(C(=O)N(C)C)c1C returned Vaccinia mCherry -0.8% and Vaccinia Venus -9.1%.
CCCc1nc2c(C)cc(Br)cn2c1Cc1cccc(F)c1 was read as Vaccinia mCherry inactive and Vaccinia Venus -7.6%.
`Cc1ccc(C)c2c1[nH]c1ccccc12` gave Vaccinia mCherry inconclusive and Vaccinia Venus -25.8%.
For O=S1(=O)CC(N2CCCCC2)CN1Cc1cn(Cc2ccc(Cl)cc2)nn1 (centres undefined) the results were Vaccinia mCherry 36.9%[activator] and Vaccinia Venus 2.4%.
Screening Cc1ccc(S(=O)(=O)N2CCCc3cc(NS(=O)(=O)c4cccc(Cl)c4)ccc32)cc1 returned Vaccinia mCherry inconclusive and Vaccinia Venus inconclusive.
CC(=O)N1CCCc2cc(S(=O)(=O)N(C)CC(=O)Nc3ccc(F)c(Cl)c3)ccc21 was read as Vaccinia mCherry -28.6% and Vaccinia Venus -28.2%.
For Cc1cccc(N2CCN(C(=O)CSc3nc4ccccc4nc3N3CC(C)OC(C)C3)CC2)c1C (centres undefined) the results were Vaccinia mCherry -18.5% and Vaccinia Venus -8.8%.
Screening COc1cccc(C2c3c(C)nn(-c4ccc([N+](=O)[O-])cc4)c3N=C3C(=O)Nc4ccccc4N32)c1 (centres undefined) returned Vaccinia mCherry 2.9% and Vaccinia Venus -3.3%.
`CN1OC[C@@H]2CN(S(=O)(=O)c3cccc4ccccc34)[C@H](c3ccc(-c4cccnc4)cc3)C[C@@H]21` gave Vaccinia mCherry -14.8% and Vaccinia Venus -24.2%.
For Brc1cccc[n+]1CCC[n+]1ccccc1Br the results were Vaccinia mCherry inactive and Vaccinia Venus -11.1%.
For O=C(COc1c(CO)cc(Br)cc1CO)NC1CCCc2ccccc21 (centres undefined) the results were Vaccinia mCherry 5.1% and Vaccinia Venus -8.5%.
`CCCN1CNc2c(c(=O)[nH]c(=S)n2CCc2c(C)cccc2C)C1` gave Vaccinia mCherry -13.4% and Vaccinia Venus -5.7%.
Screening Cc1c(NS(=O)(=O)c2ccc(NC(=O)CCC(=O)O)cc2)c(=O)n(-c2ccccc2)n1C returned Vaccinia mCherry inactive and Vaccinia Venus -17.6%.
For COc1cccc(Cn2cnc(-c3ccccc3OC)c2-c2ccco2)c1 the results were Vaccinia mCherry -0.4% and Vaccinia Venus 9.9%.
Screening CCCCC(O)(CCCC)C(=O)NN(C(=O)c1cccnc1Cl)c1ccccc1 returned Vaccinia mCherry inactive and Vaccinia Venus -13.7%.
`Cc1cccc2c1cnn2C(=O)Nc1ccccc1Cl` gave Vaccinia mCherry inactive and Vaccinia Venus -8.8%.
`O=C(Cn1ncc2c3ccccc3n(Cc3ccc(Cl)cc3)c2c1=O)NCc1ccccn1` gave Vaccinia mCherry 0.5% and Vaccinia Venus -9.1%.
`COc1ccc(C(C)(O)c2nc(-c3cccc(F)c3)cs2)cc1` (centres undefined) gave Vaccinia mCherry -16.9% and Vaccinia Venus -21.6%.
Screening CCC(C)NC(=O)CN(C)S(=O)(=O)c1ccc2c(c1)c(=O)n(C)c(=O)n2C (centres undefined) returned Vaccinia mCherry -12.6% and Vaccinia Venus -9.7%.
For CCOC(=O)C(=O)Nc1cc([N+](=O)[O-])ccc1C the results were Vaccinia mCherry -7.1% and Vaccinia Venus -10.8%.
For O=C1NC(=Nc2ccc(Cl)cc2)SC1Cc1cc(Cl)ccc1Cl (centres undefined) the results were Vaccinia mCherry -11.0% and Vaccinia Venus -2.6%.
`COc1cc(NC(=O)CCCNC(=O)Cn2cnc3sc(C)c(C)c3c2=O)cc(OC)c1OC` gave Vaccinia mCherry -9.7% and Vaccinia Venus -27.1%.
`O=C(COc1ccc2c(-c3ccccc3)cc(=O)oc2c1)NCCN1CCOCC1` gave Vaccinia mCherry -12.3% and Vaccinia Venus -5.6%.
`Cc1cc(C)n2[nH]c(=O)cc2n1` gave Vaccinia mCherry -2.0% and Vaccinia Venus -7.6%.

3 compounds already listed, arranged by number of heavy atoms, smallest number first:
`Cc1cc(C)n2[nH]c(=O)cc2n1` gave Vaccinia mCherry -2.0% and Vaccinia Venus -7.6%.
For CCOC(=O)C(=O)Nc1cc([N+](=O)[O-])ccc1C the results were Vaccinia mCherry -7.1% and Vaccinia Venus -10.8%.
`O=C(Cn1ncc2c3ccccc3n(Cc3ccc(Cl)cc3)c2c1=O)NCc1ccccn1` gave Vaccinia mCherry 0.5% and Vaccinia Venus -9.1%.
